miR-21 FLuc: qHTS Assay for Modulators of miRNAs and/orActivators of miR-21 | HeLa miR-21 FLuc reporter, luciferase, 48 h | Potency, µM (top dose mostly 38.3 µM), without a hit: top-dose reporter change, positive = more light | 340,000 tested, under 10 active; active = well fitted rising curve with a large enough effect; inconclusive = small, poorly fitted or top-dose-only effect; inactive = no such curve, though single readings can be large or run the other way;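 also: % of control where 0% means no effect; miR-21 action dims this reporter so a rising signal means less miR-21 action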
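Using DMEM plus 10% FBS, HeLa miR-21-FLuc cells are incubated with test compounds (final up to about 40uM) for 48 hours; firefly luciferase signal is then imaged following reagent-mediated lysis.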
Rango dissoc inh: qHTS Assay for Inhibitors of RanGTP induced Rango (Ran-regulated importin-beta cargo) - Importin beta complex dissociation. Snurportin-1 (Homo sapiens) + GTP-binding nuclear protein Ran (Homo sapiens) + Importin …. Biochemical FRET Rango-importin beta, RanGTP-induced dissociation. Potency, µM (top dose mostly 46.1 µM), for the others: at the top dose activity change, negative = inhibition. actives 0.071% (n = 340,000); active means falling FRET ratio curve, often poorly fitted, with flat reads before Ran was added; inconclusive means other falling curves, or compound fluorescence or quenching; inactive means flat or rising ratio curve;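 also: potency is read from the fitted curve at half-maximal effect; % of control where 0% means no effect; nearly all actives have a fitted effect of over 45% in size; -100% = wells without RanGTP and RCC1; the record marks most hits as doubtful in a second field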
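Compounds sat 5 min at room temperature with 0.1 uM Rango biosensor plus 0.25 uM importin beta, then FRET pre-read. RanGTP-RCC1 (0.6 uM Ran, 2mM GTP, 0.2 uM RCC1) added for 45 min, and the CFP/YFP post-read measured blocked complex dissociation.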
Rango-impB inh: qHTS Assay for Inhibitors of Rango (Ran-regulated importin-beta cargo) - Importin beta complex formation | Rango CFP/YFP FRET sensor + importin beta, 45 min | actives 0.031% (n = 340,000) | Potency, µM (titrated, usually from 92.2 µM), for inactives: at the top dose inhibition of complex formation | Importin subunit beta-1 (Homo sapiens), Q14974; active = rising FRET ratio curve, often small or poorly fitted; inconclusive = mostly compound fluorescence or quenching in the first reads; inactive = flat curves in all reads;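 also: potency is read from the fitted curve at half-maximal effect; 0% = DMSO wells and 100% = buffer wells lacking importin beta; nearly all actives have a fitted effect of over 15% in size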
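FRET biosensor (snurportin 1 IBB flanked by EYFP and cerulean), 50 nM, with compound 5 min, then 0.125 microM importin beta in PBS, 1 mM DTT, 0.02% Tween-20, 0.1% BSA. CFP/YFP ratio read after 45 min at room temperature; pre-read flags interference.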
GLA inh pH 4.5: qHTS Assay for Inhibitors of Human alpha-Galactosidase at pH 4.5. Alpha-galactosidase A (Homo sapiens), P06280. purified enzyme, 4-MU-alpha-Gal fluorescence, pH 4.5. activity change, negative = inhibition, % at 105 µM. 230,000 tested, under 10 active. AID 1467, 2008; inconclusive = small, poorly fitted or top-dose-only inhibition, or a rising curve; inactive = flat fitted curve, though single readings scatter; no compound was filed as active;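 also: 0% = full activity with enzyme and -100% = basal without enzyme; dose as in the result columns while the protocol names 77 µM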
Target sequence (P06280 whole entry, looked up): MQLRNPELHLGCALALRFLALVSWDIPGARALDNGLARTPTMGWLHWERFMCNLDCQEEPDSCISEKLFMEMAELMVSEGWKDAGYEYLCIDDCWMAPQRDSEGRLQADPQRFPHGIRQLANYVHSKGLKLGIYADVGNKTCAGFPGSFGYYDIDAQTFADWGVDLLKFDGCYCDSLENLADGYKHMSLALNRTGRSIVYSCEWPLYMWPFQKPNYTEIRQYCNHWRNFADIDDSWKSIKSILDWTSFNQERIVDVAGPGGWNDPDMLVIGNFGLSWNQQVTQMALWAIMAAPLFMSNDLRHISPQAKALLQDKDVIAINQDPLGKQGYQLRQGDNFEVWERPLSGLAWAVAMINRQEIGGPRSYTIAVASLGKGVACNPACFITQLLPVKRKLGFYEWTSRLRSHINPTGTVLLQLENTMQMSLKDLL
Active calls of the source: *; & = joins results of further samples. Some of the compounds tested. The share of hits here may be higher or lower than overall.

Cc1ccc(C)c(NC(=O)CCc2c(C)nn(-c3ccc(N4CCCCC4)nn3)c2C)c1 was read as miR-21 FLuc 7%, Rango dissoc inh 17% and Rango-impB inh 2.1%.
CCOC(=O)C1CCN(C(=O)c2ccccc2NC(=O)c2ccc(Cl)cc2)CC1 was read as miR-21 FLuc -5%, Rango dissoc inh 1%, Rango-impB inh 0.1% and GLA inh pH 4.5 6.
`CC1CCCCN1C(=O)Cn1nnc(-c2cccnc2)n1` (configuration not stated) gave miR-21 FLuc -3%, Rango dissoc inh -10%, Rango-impB inh 5.0% and GLA inh pH 4.5 -3.
`CC(C)(C)c1ccc(C2=CC(c3ccccc3)n3ncnc3N2)cc1` (configuration not stated) gave Rango dissoc inh inconclusive and Rango-impB inh inconclusive.
Cn1cnnc1SCC(=O)c1ccc2c(c1)OCO2 was read as miR-21 FLuc -11%, Rango dissoc inh -1%, Rango-impB inh -2.2% and GLA inh pH 4.5 -2.
`CCOc1ccccc1NC(=O)/C=C/c1ccc(S(=O)(=O)N2CCOCC2)cc1` gave Rango dissoc inh -7% and Rango-impB inh -1.2%.
Screening CCCN(CC1CC1)C(=O)CSc1ncnc2sc(C)c(C)c12 returned miR-21 FLuc 9%, Rango dissoc inh 10%, Rango-impB inh 0.2% and GLA inh pH 4.5 -3.
Cc1cc(C(F)F)n2nc(C(=O)Nc3sc4c(c3C#N)CCC(C)C4)nc2n1 (configuration not stated) was read as miR-21 FLuc -1%, Rango dissoc inh -7%, Rango-impB inh -0.1% and GLA inh pH 4.5 3.
C=CCN1C(=O)c2ccc(C(=O)N(CCOC)c3c(N)n(CCCC)c(=O)[nH]c3=O)cc2C1=O was read as Rango dissoc inh 24% and Rango-impB inh 1.4%.
For CN(C)S(=O)(=O)c1cccc(NC(=O)CN2C(=O)NC(Cc3ccccc3)C2=O)c1 (configuration not stated) the results were Rango dissoc inh -5% and Rango-impB inh inconclusive.
For O=S(=O)(c1ccc(Br)cc1)N1CCC(c2nc3ccccc3[nH]2)CC1 the results were miR-21 FLuc 10%, Rango dissoc inh -10% and Rango-impB inh 3.9%.
`CCN1CCN(C(=O)CCNC(=O)Cn2cnc3ccccc3c2=O)CC1` gave miR-21 FLuc -3%, Rango dissoc inh -17% and Rango-impB inh 1.0%.
Screening Cc1cccc(C(=O)OCC(=O)NCc2ccco2)c1 returned Rango dissoc inh -11% and Rango-impB inh 0.1%.
`Cc1onc(-c2ccccc2)c1C(=O)Nc1cccc(C#N)c1` gave miR-21 FLuc 2%, Rango dissoc inh -11%, Rango-impB inh -2.9% and GLA inh pH 4.5 3.
Screening O=C(COc1ccccc1)Nc1cccc(-c2nc3ccccc3[nH]2)c1 returned miR-21 FLuc -13%, Rango dissoc inh 6%, Rango-impB inh -2.2% and GLA inh pH 4.5 9.
Screening Cc1ccc(C)c(NC(=O)CSc2c(C)n[nH]c2C)c1 returned miR-21 FLuc 0%, Rango dissoc inh 8%, Rango-impB inh -2.4% and GLA inh pH 4.5 -2.
`O=C(NNC(=O)c1ccccc1Br)c1ccc(Cl)cc1` gave miR-21 FLuc -16%, Rango dissoc inh 11%, Rango-impB inh 0.0% and GLA inh pH 4.5 9.
COc1cc(S(=O)(=O)N(Cc2cccnc2)Cc2cccc(OC)c2OC)ccc1-n1cnnn1 was read as miR-21 FLuc 6%, Rango dissoc inh -6%, Rango-impB inh 1.9% and GLA inh pH 4.5 4.
CC(=O)Nc1cccc(NC(=O)CSc2nc(C)c(C)c(C)c2C#N)c1 was read as miR-21 FLuc -14%, Rango dissoc inh 16%, Rango-impB inh -8.0% and GLA inh pH 4.5 -14.
Screening CCOC(=O)C1(CCCc2ccccc2)CCN(C(=O)CSC)CC1 returned miR-21 FLuc 11%, Rango dissoc inh 15% and Rango-impB inh 2.0%.
For O=C(CCC(=O)OCC(=O)c1cccc([N+](=O)[O-])c1)Nc1ccccc1Cl the results were miR-21 FLuc -1%, Rango dissoc inh -9%, Rango-impB inh 0.0% and GLA inh pH 4.5 10.
`COC(=O)C1=CN(C(C)C)C=C(C(=O)OC)C1c1cc(Br)c(OC)c(OC)c1` gave miR-21 FLuc -4%, Rango dissoc inh inconclusive, Rango-impB inh inconclusive and GLA inh pH 4.5 1.
For c1cc(-c2nsc(-c3ccncc3)n2)ccn1 the results were miR-21 FLuc -11%, Rango dissoc inh 27%, Rango-impB inh -1.9% and GLA inh pH 4.5 1.
O=C(CC(O)(c1ccccc1)c1ccccc1)Nc1ccccn1 was read as Rango dissoc inh -4% and Rango-impB inh inconclusive.
For Nn1cnc2scc(-c3ccco3)c2c1=O the results were miR-21 FLuc -2%, Rango dissoc inh -1% and Rango-impB inh -0.4%.
`CCCC(=O)Nc1cccc(NC(=O)c2ccccc2Br)c1` gave miR-21 FLuc -4%, Rango dissoc inh 14%, Rango-impB inh 11% and GLA inh pH 4.5 -8.
For Cc1onc(-c2ccccc2Cl)c1C(=O)Nc1ccc(S(=O)(=O)NCC2CCCO2)cc1 (configuration not stated) the results were miR-21 FLuc 13%, Rango dissoc inh 2%, Rango-impB inh 8.5% and GLA inh pH 4.5 -8.
Screening O=C(CC1SCCNC1=O)Nc1cccc(C(F)(F)F)c1 (configuration not stated) returned miR-21 FLuc -32%, Rango dissoc inh 7%, Rango-impB inh -2.9% and GLA inh pH 4.5 7.
CCC(C)(C)n1nnnc1C(c1cc2cc3c(cc2[nH]c1=O)OCO3)N1CCCCC1 (configuration not stated) was read as miR-21 FLuc -1%, Rango dissoc inh -11%, Rango-impB inh inconclusive and GLA inh pH 4.5 8.
S=C(NCCc1ccccc1)Nc1cnc2ccccc2c1 was read as miR-21 FLuc -56%, Rango dissoc inh 1%, Rango-impB inh -1.3% and GLA inh pH 4.5 -13.
Screening CCC(C)(C(=O)NC1CCCC1)N(C(=O)CNC(C)=O)c1ccc(C)cc1 (configuration not stated) returned miR-21 FLuc -2%, Rango dissoc inh 9%, Rango-impB inh 1.7% and GLA inh pH 4.5 -1.
`COc1cc(NC(=O)c2cc3c(=O)n(C)c4ccccc4c3n2C)cc(OC)c1OC` gave miR-21 FLuc -2%, Rango dissoc inh 19%, Rango-impB inh -3.7% and GLA inh pH 4.5 1.
`COc1ccccc1NC(=O)c1ccc(-c2ccc(Br)cc2)o1` gave miR-21 FLuc 8%, Rango dissoc inh 7%, Rango-impB inh -2.9% and GLA inh pH 4.5 0.
`CN(CC(=O)N1CC(=O)N(CCc2ccccc2)C(=O)C1)S(=O)(=O)c1cccc2nsnc12` gave miR-21 FLuc 0%, Rango dissoc inh -10%, Rango-impB inh -1.3% and GLA inh pH 4.5 1.
Screening COCCN(CC(=O)Nc1ccccc1C(F)(F)F)C(=O)c1ccc(-n2cccn2)cc1 returned Rango dissoc inh 0% and Rango-impB inh 4.6%.
Screening COc1cc(NC(=O)[C@H]2CCCN2S(=O)(=O)c2cccc3cccnc23)cc(OC)c1OC returned Rango dissoc inh 5% and Rango-impB inh -0.5%.
`CCOc1ccc(NC(=O)CSc2nnc(C)n2CCCOC)cc1` gave miR-21 FLuc 0%, Rango dissoc inh -9%, Rango-impB inh 0.4% and GLA inh pH 4.5 7.
CC(C)C(=O)Nc1nnc(S(=O)(=O)N2CCCc3ccccc32)s1 was read as miR-21 FLuc 2%, Rango dissoc inh -1% and Rango-impB inh -0.6%.
`CCOC(=O)Cn1nc(-c2ccccc2)c2ccccc2c1=O` gave miR-21 FLuc -8%, Rango dissoc inh -3%, Rango-impB inh -3.0% and GLA inh pH 4.5 0.
Screening Cc1nc(-c2nc(CC(=O)NNC(=O)c3ccc(Cl)cc3)cs2)cs1 returned miR-21 FLuc 1%, Rango dissoc inh 1%, Rango-impB inh 1.0% and GLA inh pH 4.5 -13.

Among those listed so far, 3 contain a furan ring, fused or not.
Screening Cc1cccc(C(=O)OCC(=O)NCc2ccco2)c1 returned Rango dissoc inh -11% and Rango-impB inh 0.1%.
For Nn1cnc2scc(-c3ccco3)c2c1=O the results were miR-21 FLuc -2%, Rango dissoc inh -1% and Rango-impB inh -0.4%.
`COc1ccccc1NC(=O)c1ccc(-c2ccc(Br)cc2)o1` gave miR-21 FLuc 8%, Rango dissoc inh 7%, Rango-impB inh -2.9% and GLA inh pH 4.5 0.

(list continues)
For O=[N+]([O-])c1ccc(S(=O)(=O)Nc2ccc(-c3ccc(N4CCOCC4)nn3)cc2)cc1 the results were Rango dissoc inh 0% and Rango-impB inh inconclusive.
Screening CC(Oc1ccc(Br)cc1)C(=O)Nc1cc(S(=O)(=O)N2CCOCC2)ccc1N1CCCC1 (configuration not stated) returned Rango dissoc inh 15% and Rango-impB inh 0.8%.
`COc1ccc(OC)c(NC(=O)C2CCN(C(=O)c3cccs3)CC2)c1` gave miR-21 FLuc -3%, Rango dissoc inh 13%, Rango-impB inh -0.1% and GLA inh pH 4.5 8.
CCC1=C(OC(=O)N(CC)CC)N2C(=O)OC(=NCCOC)[C@]2(Cc2ccccc2)[C@H]2C1=CC[C@H]1C(=O)N(C)C(=O)[C@H]12 was read as miR-21 FLuc 3%, Rango dissoc inh 0%, Rango-impB inh 2.1% and GLA inh pH 4.5 6&6.
For COc1ccc(CNC(=S)NCc2ccc(F)cc2)cc1 the results were miR-21 FLuc -22%, Rango dissoc inh -13% and Rango-impB inh 1.1%.
Cc1cc(C(F)F)nn1CC(=O)N1CCSCC1 was read as miR-21 FLuc 1%, Rango dissoc inh -1%, Rango-impB inh 0.0% and GLA inh pH 4.5 -1.
CC(Sc1nnc(CNC(=O)c2ccco2)n1C)C(=O)Nc1nccs1 (configuration not stated) was read as miR-21 FLuc 1%, Rango dissoc inh -11% and Rango-impB inh -5.5%.
O=C(Nc1ccc(F)cc1)C(c1ccccc1)N1CCN(CC(=O)N2CCOCC2)CC1 (configuration not stated) was read as Rango dissoc inh -18% and Rango-impB inh -3.3%.
For COc1cc(NS(=O)(=O)c2ccc(NC(=S)NC(=O)c3ccc(F)cc3)cc2)nc(OC)n1 the results were miR-21 FLuc -22%, Rango dissoc inh 0% and Rango-impB inh 0.1%.
COc1cccc(CNS(=O)(=O)c2ccc(S(=O)(=O)N3CCCC3)cc2)c1 was read as miR-21 FLuc 0%, Rango dissoc inh 2%, Rango-impB inh -1.5% and GLA inh pH 4.5 -13.
For CN(Cc1ccccc1)C(=O)CCS(=O)(=O)c1ccc2c(c1)NC(=O)CS2 the results were miR-21 FLuc 2%, Rango dissoc inh 42% and Rango-impB inh -3.9%.
For Cc1ccnc(NC(=O)c2ccc(COc3ccc(Cl)cc3)o2)c1 the results were miR-21 FLuc -26%, Rango dissoc inh 5%, Rango-impB inh -5.4% and GLA inh pH 4.5 -6.
`Cc1oc(-c2ccccc2F)nc1CN1CCC(C(=O)NC2CCCc3ccccc32)CC1` (configuration not stated) gave miR-21 FLuc -3%, Rango dissoc inh -6%, Rango-impB inh 1.7% and GLA inh pH 4.5 2.
`Cc1cccc(C)c1CC(=O)N1CCOCC1` gave miR-21 FLuc 2%, Rango dissoc inh 6% and Rango-impB inh -2.1%.
For CC(C)NS(=O)(=O)c1ccc(OCC(=O)N2CCCC2)c(Cl)c1 the results were miR-21 FLuc 3%, Rango dissoc inh -10%, Rango-impB inh 0.8% and GLA inh pH 4.5 2.
`CC(C)(C)C(=O)OCCNc1nc(-c2ccccc2)nc2ccccc12` gave miR-21 FLuc 0%, Rango dissoc inh 7%, Rango-impB inh -3.9% and GLA inh pH 4.5 -4.
Screening CCOc1ccccc1N(CC(=O)Nc1cccnc1)S(=O)(=O)c1ccc(C)cc1 returned miR-21 FLuc 7%, Rango dissoc inh 0%, Rango-impB inh 1.3% and GLA inh pH 4.5 -3.

From PubChem BioAssay
